High-throughput results as filed in PubChem.
gsp antag – antagonizes gsp, the McCune-Albright syndrome mutation. gsp-mutant cells, cAMP HTRF, 30 min; control for the full effect not named in the record. Potency, µM (highest dose often 76.9 µM), without a hit: at the top dose activity change, negative = inhibition, actives largely listed as inhibitors. 340,000 tested, 0.4% active. AID 624288; active = falling curve of any shape with a large fitted effect; inconclusive = falling curve, mostly with a smaller effect; inactive = flat or rising curve; cell line not stated here;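 further: intracellular cAMP measured with PDE inhibitor Ro 20-1724 present during compound exposure; potency means the concentration at half of the fitted maximal effect; on the % scale 0 is the no-effect control and ±100 the full control effect; nearly all actives have a fitted effect of over 65% in size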
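G418-selected cells were plated in DMEM/10% FBS for 16-24 h at 37C, then treated with compounds plus the PDE inhibitor […] (300 uM solution added) for 30 min at 37C. Intracellular cAMP was measured by HTRF after 30 min lysis at room temperature.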
D2 agonist – human D2 receptor agonism in beta-arrestin assay | P14416 | DiscoveRx PathHunter D2 beta-arrestin, luminescence, 90 min; 100% = 57 uM dopamine signal | activation, % (test concentration not listed) | 360,000 tested, 0.084% active | AID 624465; in the data active = activation above about 40%; inconclusive = about 15% to 40%; inactive = below about 15%; further: compound concentration not given in the record; the text of the record calls up to 30% inactive
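Agonist mode: compounds alone added to overnight-plated D2 PathHunter cells for 90 min at 37 C, with 57 uM final dopamine (EC100) defining full response. Beta-arrestin recruitment detected by chemiluminescent reagent, read after 1 h at ambient temperature.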
D2 PAM – human D2 receptor positive allosteric modulation. P14416. DiscoveRx D2 beta-arrestin cells, luminescence, 90 min; 100% = 57 uM dopamine signal. potentiation, % (test concentration not listed). 360,000 tested, 0.23% active. AID 624464; active = potentiation of 50% or more; inconclusive = 30% to 50%; inactive = 30% or less;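 further: compound concentration not given in the record; tested on top of an EC20 dose of dopamine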
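PathHunter D2 cells, attached overnight at 37 deg C, received compound in DMSO plus dopamine at EC20 (50 nM final) for 90 min at 37 deg C. Beta-arrestin recruitment was read as luminescence after 1 h with detection reagent at ambient temperature.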
gsp ag – agonists of gsp mutant (McCune-Albright syndrome). gsp mutant cells, cAMP HTRF, 30 min; control for the full effect not named in the record. Potency, µM (titrated, usually from 76.9 µM), for inactives: top-dose activation (cAMP increase), hits mostly activators. 340,000 tested, 0.13% active. AID 624287; active = well fitted activation curve with a large enough effect; inconclusive = small, poorly fitted or top-dose-only effect, or another doubt; inactive = no such curve, though single readings can be large or run the other way; cell line not stated here;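 further: phosphodiesterase inhibitor Ro 20-1724 added with compounds to block cAMP breakdown; potency means the concentration at half of the fitted maximal effect; nearly all actives have a fitted effect of over 60% in size; about a fifth of the inactives were tested at one dose only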
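Cells in DMEM/10% FBS with G418 were pretreated with compounds in DMSO plus […] (300 uM stock) for 30 min at 37C. cAMP was measured by HTRF (cAMP-d2 plus anti-cAMP antibody-K) after 30 min at room temperature.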
CtBP-E1A inh – blocks the CtBP interaction with E1A; AlphaScreen GST-E1A/His-CtBP binding, 1536-well; stronger effect = lower value; control for the full effect not named in the record; activity change, % (no concentration beside the values); 340,000 tested, 0.49% active; AID 651724; in the data active means activity change below about -65%; inconclusive means about -30% to -65%; inactive means above about -30%; further: on the % scale 0 is the no-effect control and ±100 the full control effect; compound concentration not given in the record
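AlphaScreen with 125 nM GST-E1A and 125 nM His-CtBP (5X stocks) in Tris pH 8.0, 300 mM NaCl, BSA, Tween 20, TCEP. Compounds preincubated 2 h at 37 deg C, then glutathione donor/nickel acceptor beads added for 1 h at 37 deg C in dark.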
Six1-Eya2 inh – Six1/Eya2 interaction inhibition; AlphaScreen GST-Six1/His-Eya2 binding, biochemical; stronger effect = lower value; control for the full effect not named in the record; activity change, % (concentration not given with the values); 360,000 tested, 0.56% active; in the data active = activity change below about -65%; inconclusive = about -30% to -65%; inactive = above about -30%; further: on the % scale 0 is the no-effect control and ±100 the full control effect
Target sequence (O00167 whole entry, looked up): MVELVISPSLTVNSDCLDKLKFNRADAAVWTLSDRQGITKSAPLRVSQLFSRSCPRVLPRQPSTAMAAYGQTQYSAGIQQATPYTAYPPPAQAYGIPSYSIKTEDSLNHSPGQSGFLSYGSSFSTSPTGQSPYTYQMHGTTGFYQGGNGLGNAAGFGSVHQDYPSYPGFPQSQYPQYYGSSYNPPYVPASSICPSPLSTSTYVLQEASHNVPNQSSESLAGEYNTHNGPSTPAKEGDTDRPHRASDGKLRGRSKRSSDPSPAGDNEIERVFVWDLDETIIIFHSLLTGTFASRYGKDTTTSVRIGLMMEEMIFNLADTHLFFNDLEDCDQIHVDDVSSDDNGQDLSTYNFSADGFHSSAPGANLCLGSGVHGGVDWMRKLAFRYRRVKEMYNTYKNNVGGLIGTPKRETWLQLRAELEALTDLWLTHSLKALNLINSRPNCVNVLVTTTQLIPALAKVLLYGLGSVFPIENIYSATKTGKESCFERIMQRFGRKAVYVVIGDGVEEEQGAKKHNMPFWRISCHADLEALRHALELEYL
Target sequence (Q15475 whole entry, looked up): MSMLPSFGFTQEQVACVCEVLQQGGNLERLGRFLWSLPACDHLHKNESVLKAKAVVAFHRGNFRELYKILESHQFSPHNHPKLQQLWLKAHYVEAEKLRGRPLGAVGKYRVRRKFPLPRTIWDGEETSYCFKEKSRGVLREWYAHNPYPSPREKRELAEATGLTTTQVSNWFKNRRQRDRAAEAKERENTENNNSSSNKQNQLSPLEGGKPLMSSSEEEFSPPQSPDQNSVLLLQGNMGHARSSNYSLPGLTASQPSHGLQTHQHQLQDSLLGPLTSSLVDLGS
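AlphaScreen luminescence read after one hour at 37 °C in darkness. Pin-transferred compounds met GST-Six1 and His-Eya2 protein (5X stock 250 nM/500 nM) plus glutathione donor and Ni-chelate acceptor beads (5X, 50 ug/mL).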
Numbers without * were called inactive; ? = inconclusive; . = not tested or not shown; [ ] = another dose, or the depositor's remark.

SMILES	gsp antag	D2 agonist	D2 PAM	gsp ag	CtBP-E1A inh	Six1-Eya2 inh
Cn1nc([N+](=O)[O-])nc1Oc1ccc(C(C)(C)C)cc1	-11%	-6.0	9	?	-3	-3
CCC1(c2ccccc2)NC(=O)N(CC(=O)Nc2ccccc2C(=O)NC2CC2)C1=O (configuration not stated)	-9%	-1.4	9	4%	5	-1
CC(C)CN(C(=O)CSc1nnc(-c2ccco2)o1)c1c(N)n(Cc2ccccc2)c(=O)[nH]c1=O	12%	-1.6	-2	-2%[15.4 µM]	7	-13
O=C(O)c1cccc(-n2cccc2/C=C2/SC(=O)N(CC(=O)N3CCCC3)C2=O)c1	11%	-4.0	4	-2%[15.4 µM]	0	?
O=C1CC(c2ccccc2)CC(O)=C1C=NCCN1CCN(C(=O)Nc2ccccc2)CC1 (configuration not stated)	0%	-3.9	-8	4%	7	-4
Cc1cc(=O)[nH]c(SCC(=O)N2CCCC(C)C2)n1 (configuration not stated)	-2%	-5.4	-1	-13%	-3	10
O=C(COC(=O)COc1ccccc1[N+](=O)[O-])NC1CCCC1	-16%	-6.3	-14	0%	10	3
COc1ccc(CCNC(=O)/C=C/c2ccco2)cc1OC	0%	0.6	6	-3%[15.4 µM]	-6	0
CC1=C(C(=O)NC2CCC(C)CC2)C2(CCC(C)CC2)OC1=O (configuration not stated)	9%	-3.7	1	-12%	-7	0
Clc1cncc(Cl)c1NNc1c2ccccc2nc2ccccc12	11%	8.1	0	?	-13	-2
O=C(Cn1ccc2ccccc2c1=O)NCCC(=O)NC1CCN(Cc2ccccc2)CC1	13%	-1.9	4	-25%	-2	-1
CC12CC(c3ccccc3O1)C(C(=O)N1CCOCC1)C(=O)N2 (configuration not stated)	1%	-1.8	13	-11%	-17	-6
O=C1C(=O)N(Cc2ccncc2)C(c2ccccc2F)/C1=C(\O)c1ccc2c(c1)OCCO2 (configuration not stated)	39%[activator]	-1.7	-2	?	-12	4
Cc1ccc(Nc2nnc(SCC(=O)Nc3ncc(S(=O)(=O)c4ccc([N+](=O)[O-])cc4)s3)s2)cc1	-6%	12	16	22%	5	4
COc1ccc(OC)c(-c2nc(CN3CCN(C(=O)c4ccco4)CC3)c(C)o2)c1	-10%	7.5	-11	-30%	-6	-1
O=C(Nc1ccccc1C(=O)NCC1CCCO1)c1ccco1 (configuration not stated)	-9%	-3.0	-3	?	6	0
CN=C1S/C(=C\c2ccc(Cl)cc2)C(=O)N1C	-2%	5.8	-4	4%	5	1
CC(=O)c1ccc(NC(=S)NC(NC(=O)c2ccco2)C(Cl)(Cl)Cl)cc1 (configuration not stated)	1%	1.1	-11	-5%	-14	-14
COc1ccc2c(C(=O)CN3CCN(CCO)CC3)c[nH]c2c1	8%	-1.3	-13	-23%	6	3
O=C(c1ccccc1Br)N1CCN(c2ccc([N+](=O)[O-])c(N3CCOCC3)c2)CC1	?	-2.2	0	22%	-8	-7
COC(=O)[C@H](C(C)C)N(Cc1ccccc1)S(=O)(=O)CCN1CCCC1	9%	0.2	-15	.	-2	-1
CN(C)c1ccc(N=Cc2ccco2)cc1	?	2.9	21	27%	?	?
COc1cccc(NC(=S)NC(Cc2ccccc2)c2ccccc2)c1 (configuration not stated)	.	-1.7	-12	-3%	3	-5
Cc1cc2ncn(CCC(=O)NC3CCCC3)c2cc1C	-5%	-2.3	1	-17%	-3	-12
CCCCn1c(N)c(N(CC(C)C)C(=O)C2=COCCO2)c(=O)[nH]c1=O	11%	-3.5	-13	-41%[inhibitor]	.	8
(next part)
SMILES	gsp antag	D2 agonist	D2 PAM	gsp ag	CtBP-E1A inh	Six1-Eya2 inh
CC(C)(C)c1ccc2c(c1)C(c1ccc3c(c1)OCO3)CC(=O)O2 (configuration not stated)	-8%	2.0	.	.	0	-5
CCOC(=O)c1cc(NC(=O)SCC(=O)O)c(C)nc1C	1%	-1.2	23	-47%[inhibitor]	-1	-2
O=C(COC(=O)c1ccc(Cl)nc1)Nc1ccc2ccccc2c1	8%	-4.6	3	16%	8	-2
Cc1csc(NC(=O)C2CCN(C(=O)c3ccccc3C)CC2)n1	-1%	4.7	-2	-8%	.	-1
Nc1c(C(=O)NC2CCCC2)sc2nc(-c3cccs3)ccc12	12%	-0.5	-15	?	1	11
O=C(Nc1nc(-c2ccc(-c3ccccc3)cc2)cs1)C1=COCCO1	1%	3.3	-9	20%	-2	11
C/C(=N\NC(=O)c1cccc(S(=O)(=O)Nc2ccccc2Cl)c1)c1ccc(-n2ccnc2)cc1	-4%	1.4	-13	19%	?	-22
O=C(Nc1ccc(NC(=O)c2cccs2)cc1)c1ccc(Br)o1	1%	-1.4	11	-74%[inhibitor]	-13	-3
COc1ccc(N2CCN(C(=O)CSc3nnc4c(C)cc5ccc(C)c(C)c5n34)CC2)cc1	-19%	-5.0	0	-8%	2	-2
CCOC(=O)C1(CCOC)CCN(Cc2ccc(COC)o2)CC1	-5%	-1.6	-3	0%[15.4 µM]	-2	2
COc1ccc(OC)c(S(=O)(=O)NCC(=O)NC2CCCc3ccccc32)c1 (configuration not stated)	-6%	6.0	-11	5%	9	2
COc1cc(NC(=O)COC(=O)c2[nH]c(C)c(C(C)=O)c2C)cc(OC)c1	-22%	3.5	-8	21%	-8	-8
Nc1ccc(C#Cc2ccccc2)cc1	1%	-3.3	4	-9%	2	-1
COc1ccccc1N1CCN(S(=O)(=O)c2cnc[nH]2)CC1	1%	-5.6	1	-22%	-2	-3
N#CC1=C(N)Oc2c(sc3ccccc23)C1c1ccco1 (configuration not stated)	1%	1.4	15	12%	?	0
COc1ccc(CCNC(=O)COc2ccc(S(=O)(=O)N3CCOCC3)cc2C)cc1	-8%	10	1	-5%[15.4 µM]	24	6
CNc1nnc(-c2ccc(OC)cc2)s1	-6%	-6.0	-8	6%	-6	1
Cc1ccc(C(=O)OCN2C(=O)c3ccccc3C2=O)o1	15%	-4.9	-24	28%[15.4 µM]	9	3
COc1ccc(-c2nn(CCC#N)cc2C(=O)Nc2ccccn2)cc1OC	12%	0.8	3	-4%	3	-3
O=c1[nH]c(Nc2ccc(F)cc2)cc2ccccc12	12%	2.8	5	-6%	?	4
COc1ccc2cc(C3c4cc(OC)c(OC)cc4CCN3C(=O)c3ccco3)c(=O)[nH]c2c1 (configuration not stated)	-11%	-3.1	-5	28%	-23	-7
O=C(CSc1nnc(-c2ccco2)c(-c2ccco2)n1)Nc1ccccc1	3%	-0.9	-29	-20%	?	?
Cn1c(/C=C/N(Cc2ccccc2)c2ccccc2)c([N+](=O)[O-])c(=O)n(C)c1=O	?	0.8	1	6%	.	-23
CC(C)CN(CC(C)C)S(=O)(=O)N1CCC(C(=O)NCc2ccc(F)cc2)CC1	-28%	-9.2	-8	-4%	-24	5
O=C(NCC1CCN(Cc2ccccc2Cl)CC1)Nc1ccccc1F	18%	-3.0	-15	11%[15.4 µM]	11	2
More results.
SMILES	gsp antag	D2 agonist	D2 PAM	gsp ag	CtBP-E1A inh	Six1-Eya2 inh
O=C(N[C@@H](Cc1ccccc1)c1nc2ccccc2[nH]1)c1cc([N+](=O)[O-])ccc1Cl	0%	0.3	-9	2%	.	8
COc1ccc(OC)c(-c2nc3cc4ccccc4cc3nc2-c2ccccc2)c1	27%	-6.9	-7	0%	.	13
CC(C)(C)c1[nH]nc2c1C(Cc1ccccc1)C(C#N)=C(N)O2 (configuration not stated)	10%	0.5	9	-13%	4	-4
Cc1cc(C(F)(F)F)nn1Cc1n[nH]c(=S)n1Cc1ccccc1	1%	-3.8	-9	13%	-14	-17
Cc1ccc(-c2nnc(SCC(=O)NCCN3C(=O)CSC3=O)n2C)cc1	-10%	-2.5	-14	-30%	3	4
O=C(N/N=C/c1ccc(O)cc1)c1cc(-c2ccccc2)nc2ccccc12	-17%	-12	-12	-21%	-1	-7
Cc1ccc(S(=O)(=O)N(C)C[C@@H]2OCc3cn(nn3)CCCC(=O)N([C@@H](C)CO)C[C@H]2C)cc1	.	-6.7	5	-42%	7	7
O=C(O)C1C2C=CC3(CN(CC(O)COc4ccccc4)C(=O)C13)O2 (configuration not stated)	3%	-0.2	-7	-14%	6	9
CCC(C)[C@H]1CNCCN1CCc1cc(C(F)(F)F)cc(C(F)(F)F)c1 (some centres not stated)	-7%	-1.6	-9	0%	.	13
CCN(CC)C(=O)CSC1=Nc2ccccc2C2=NC(Cc3c[nH]c4ccccc34)C(=O)N12 (configuration not stated)	-17%	-2.8	-5	-51%[inhibitor]	-2	-1
CCSc1nc(-c2ccccc2)c(C#N)c(=O)[nH]1	-2%	0.8	-22	?	8	5
O=S(=O)(NCc1ccccn1)c1ccc(F)cc1	6%	-1.4	12	-23%	-16	-1
O=C(CCNC(=O)c1ccc(Cl)cc1)Nc1nc2ccccc2[nH]1	4%	1.9	-1	1%	-1	0
Cc1ccccc1[C@@H](NC(=O)OC(C)(C)C)C(=O)OC(C)(C)C	1%	-3.9	-6	-11%	8	7
CC1(C)CC(=O)N(c2ccc(C#N)cc2)C(=O)C1	14%	-3.5	0	25%	16	4

By substructure: the compounds so far containing a furan ring, fused or not (twelve)
SMILES	gsp antag	D2 agonist	D2 PAM	gsp ag	CtBP-E1A inh	Six1-Eya2 inh
CC(C)CN(C(=O)CSc1nnc(-c2ccco2)o1)c1c(N)n(Cc2ccccc2)c(=O)[nH]c1=O	12%	-1.6	-2	-2%[15.4 µM]	7	-13
COc1ccc(CCNC(=O)/C=C/c2ccco2)cc1OC	0%	0.6	6	-3%[15.4 µM]	-6	0
COc1ccc(OC)c(-c2nc(CN3CCN(C(=O)c4ccco4)CC3)c(C)o2)c1	-10%	7.5	-11	-30%	-6	-1
O=C(Nc1ccccc1C(=O)NCC1CCCO1)c1ccco1 (configuration not stated)	-9%	-3.0	-3	?	6	0
CC(=O)c1ccc(NC(=S)NC(NC(=O)c2ccco2)C(Cl)(Cl)Cl)cc1 (configuration not stated)	1%	1.1	-11	-5%	-14	-14
CN(C)c1ccc(N=Cc2ccco2)cc1	?	2.9	21	27%	?	?
O=C(Nc1ccc(NC(=O)c2cccs2)cc1)c1ccc(Br)o1	1%	-1.4	11	-74%[inhibitor]	-13	-3
CCOC(=O)C1(CCOC)CCN(Cc2ccc(COC)o2)CC1	-5%	-1.6	-3	0%[15.4 µM]	-2	2
N#CC1=C(N)Oc2c(sc3ccccc23)C1c1ccco1 (configuration not stated)	1%	1.4	15	12%	?	0
Cc1ccc(C(=O)OCN2C(=O)c3ccccc3C2=O)o1	15%	-4.9	-24	28%[15.4 µM]	9	3
COc1ccc2cc(C3c4cc(OC)c(OC)cc4CCN3C(=O)c3ccco3)c(=O)[nH]c2c1 (configuration not stated)	-11%	-3.1	-5	28%	-23	-7
O=C(CSc1nnc(-c2ccco2)c(-c2ccco2)n1)Nc1ccccc1	3%	-0.9	-29	-20%	?	?
